# LANA-H2A inh – blocks KSHV LANA binding to histone H2A/H2B | cell-free LANA-H2A/H2B peptide, fluorescence polarization | inhibition, % (no concentration beside the values) | 320,000 tested, 0.6% active | AID 2629; in the data active means inhibition mostly above about 10%, no sharp cut-off; inactive means mostly below about 6.7%;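 further: stock transfer was 7.5 nL into about 10 µL; 0% = median of vehicle wells and 100% = median of positive control wells; one replicate is shown; the record names a cut of 25% in any replicate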
# UCH37 inh – inhibitors of human deubiquitinating enzyme UCH37; Q9Y5K5; purified proteasome/UCH37, Ub-AMC cleavage fluorescence; inhibition, % (no concentration beside the values); 330,000 tested, 0.33% active; AID 588478;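 active means mean of two replicates above 20%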;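 further: 0% = compound-free wells with enzyme and 100% = wells lacking proteasome; stock transfer was 100 nL into about 20 µL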
#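 Assay system: Proteasome-bound UCH37. Buffer or medium: pH 7.4 Tris-HCl (50 mM) with ovalbumin, ATP-MgCl2, DTT. Incubation: 30 min preincubation with enzyme, 25 min cleavage at room temperature. Measured by: fluorescence, ex 355 nm, em 460 nm. Read-out basis: percent inhibition. Control set: wells without proteasome as full block, compound-free enzyme plus substrate as uninhibited.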
# Beta2AR agonist – human beta-2 adrenergic receptor agonism by FAP. response, % (test concentration not listed). 340,000 tested, 0.43% active. Am2.2-beta2AR cells, FAP receptor internalization, flow cytometry; reference of the scale not given here;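 active means response above a set limit, near 3 SD of response in nonfluorescent compounds, cut at about 42% in these data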;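 further: stock transfer was 100 nL into about 11 µL; a reference agonist was the positive control; negative values mostly stem from fluorescent compounds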
# Target sequence (P07550 whole entry, looked up): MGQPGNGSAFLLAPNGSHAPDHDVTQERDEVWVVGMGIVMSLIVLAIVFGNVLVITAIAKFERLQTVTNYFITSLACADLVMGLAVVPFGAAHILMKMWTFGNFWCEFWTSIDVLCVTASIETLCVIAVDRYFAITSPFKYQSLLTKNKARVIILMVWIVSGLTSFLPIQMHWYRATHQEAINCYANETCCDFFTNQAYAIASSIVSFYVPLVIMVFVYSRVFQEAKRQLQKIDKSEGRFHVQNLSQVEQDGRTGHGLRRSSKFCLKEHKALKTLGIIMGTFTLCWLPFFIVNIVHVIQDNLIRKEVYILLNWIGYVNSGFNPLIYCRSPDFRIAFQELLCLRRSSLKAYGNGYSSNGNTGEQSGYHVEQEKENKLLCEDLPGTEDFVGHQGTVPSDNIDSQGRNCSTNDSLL
# HNF4A DNA FP – change in binding of human HNF4 alpha to DNA; activity change, % at 10 µM; P41235; 360,000 tested, 0.3% active; HNF4a-FITC DNA binding, fluorescence polarization, 1 h; in the data active means activity change above about 30%, passing the limit was not always enough;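 further: controls were the assay level and a saturating level of protein; the project sought stronger binding though the title names inhibitors; some compounds called inactive have numbers as strong as hits; positive values seem to mean higher polarization but the record does not say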
# Target sequence (P41235 whole entry, looked up): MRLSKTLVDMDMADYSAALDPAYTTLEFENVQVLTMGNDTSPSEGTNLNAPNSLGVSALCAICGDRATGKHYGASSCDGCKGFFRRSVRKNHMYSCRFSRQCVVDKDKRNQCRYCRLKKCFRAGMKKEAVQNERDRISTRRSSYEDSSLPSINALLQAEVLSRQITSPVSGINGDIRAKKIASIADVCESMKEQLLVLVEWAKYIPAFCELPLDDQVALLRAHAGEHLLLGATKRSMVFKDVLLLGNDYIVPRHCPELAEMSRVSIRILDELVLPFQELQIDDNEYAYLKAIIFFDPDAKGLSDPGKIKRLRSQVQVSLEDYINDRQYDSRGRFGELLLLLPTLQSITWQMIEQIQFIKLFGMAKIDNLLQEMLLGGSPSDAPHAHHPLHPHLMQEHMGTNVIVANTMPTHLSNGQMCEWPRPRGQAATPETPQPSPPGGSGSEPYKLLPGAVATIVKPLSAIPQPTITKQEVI
# FGF22 binding – shifts melting point of recombinant human FGF22; Q9HCT0; recombinant FGF22 thermal shift, SYPRO orange fluorescence; percent of sucrose octasulfate shift, DMSO zero; calls only at 9.99 µM; 340,000 tested, 1.5% active; AID 651658;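 active means melting point raised past a set limit in the mean and every replicate; inconclusive means no clear call; three in four hits are not shown here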
# Target sequence (Q9HCT0 whole entry, looked up): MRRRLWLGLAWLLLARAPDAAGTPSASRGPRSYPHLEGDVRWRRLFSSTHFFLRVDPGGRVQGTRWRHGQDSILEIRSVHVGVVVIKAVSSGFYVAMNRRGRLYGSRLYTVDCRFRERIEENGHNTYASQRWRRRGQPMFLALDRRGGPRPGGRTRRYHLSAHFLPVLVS
# E coli growth – inhibitors of Escherichia coli growth; 330,000 tested, 0.21% active; AID 1053175; OD600, 23 h; active compounds read low; OD600 absorbance (test concentration not listed);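 active means OD600 absorbance below the run mean of sample wells minus 3.6 SD, in any replicate, cut at about 0.56 in these data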;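 further: stock transfer was 300 nL into about 60 µL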
# ALR H2O2 inh – inhibitors of human sulfhydryl oxidase ALR; purified ALR, DTT oxidation, H2O2 HRP-luminol luminescence; AID 485317; 290,000 tested, 3.8% active; inhibition, % (concentration not given with the values);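 active means mean and each replicate at 75% or more; inconclusive means only one of the two met; inactive means neither met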;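 further: stock transfer was 7.5 nL into about 7.5 µL; 0% = neutral wells and 100% = wells with inactivated enzyme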
# Starred values were filed as active, the others as inactive; i = inactive; ? = inconclusive; . = no result given. Some of the compounds tested, so the mix of outcomes need not match the whole.
LANA-H2A inh	UCH37 inh	Beta2AR agonist	HNF4A DNA FP	FGF22 binding	SMILES	E coli growth	ALR H2O2 inh
1.4	0.0	-2	-4.0	i	CC1(C)C(=O)Nc2ccccc2N1C(=O)COC(=O)COc1cccc(C(F)(F)F)c1	0.63	-5
-5.2	1.8	-5	2.4	i	COc1cc(CC(=O)O)ccc1O	.	60
6.9	1.3	10	-6.2	i	Nc1c(C(=O)O)cnc2nc(N3CCOCC3)nn12	0.71	-2
-5.0	-17	0	2.9	.	COC(=O)C1=C(C)NC(C)=C(C(=O)OC)C1c1ccccc1OCc1c(C)no[n+]1[O-]	0.62	-7
-2.9	5.0	-3	6.0	.	CCOc1ccc2c(c1)c(C(C)=O)c(C)n2-c1ccccc1	0.69	-6
2.5	.	12	4.4	i	Cc1cccc(C(=O)Oc2ccc(/C=N/NC(=O)c3ccccc3O)cc2)c1	.	-2
2.8	0.9	2	-1.6	i	CCOC(=O)[C@@H]1[C@H]2COc3cc(OC)ccc3[C@H]2N2C(=O)N(c3cccc(C)c3)C(=O)[C@]12C	.	12
1.6	5.6	0	0.1	.	CC(=O)N(C)c1ccc(NC(=O)c2ccccc2C(=O)O)cc1	0.68	-10
-3.0	1.4	-1	2.0	i	O=C(NCCOc1ccc(F)cc1)C1CCC(=O)N(CC2CCCCC2)C1 (stereo unspecified)	0.69	-7
-0.2	2.7	-7	-7.9	i	O=C(CCc1nnc(C2CCCCC2)o1)N1CCN(c2ccccc2F)CC1	0.72	.
2.0	0.9	4	3.8	i	CCc1ccccc1NC(=O)Nc1cccs1	0.68	-6
-4.3	6.7	4	2.2	i	CN(C)CCCN1C(=O)CSC1c1ccccc1 (stereo unspecified)	0.7	62
3.8	2.7	-15	-0.8	.	CSc1cc(-c2ccccc2)n(Cc2ccc(Cl)cc2Cl)c(=O)c1C#N	0.78	-7
-0.4	-0.3	-21	-0.6	.	CC(OC(=O)c1cc(Cl)ccc1[N+](=O)[O-])C(=O)NC(C)c1ccc(F)cc1 (stereo unspecified)	0.69	-13
.	.	3	3.0	i	CN(C)/C(=C\C(=O)c1ccccc1)C(=O)c1ccccc1	.	.
2.4	-26	-8	-3.5	i	CN(C)C(=O)COC(=O)c1ccccc1Nc1ccc(SC(F)F)cc1	0.64	49
-1.6	3.1	0	-0.2	.	CC(C)Cc1nnc(NC(=O)CCC(=O)Nc2ccc(F)cc2)s1	0.66	-2
.	-25	13	5.7	.	Cc1cccc(Cc2c(C)nc3c(C(=O)N4CCN(Cc5ccc6c(c5)OCO6)CC4)cnn3c2C)c1	0.63	.
1.5	2.3	1	2.5	i	CC1CCN(C(=O)COC(=O)c2ccc3c(c2)OCCO3)CC1	0.7	.
5.1	0.8	-2	-0.8	.	Cc1cc(Br)ccc1NC(=O)C1CSC2(C)CCC(=O)N12 (stereo unspecified)	0.72	-6
0.5	0.4	-8	-2.6	.	Clc1ccc(-c2nnc3ccccn23)cc1	0.76	-9
-1.0	4.2	2	4.3	i	NS(=O)(=O)c1ccc(CCNC(=O)/C=C/c2ccccc2[N+](=O)[O-])cc1	0.7	-15
1.2	2.5	11	-1.5	i	COC(=O)C(Cc1ccccc1)NC(=S)NC(=O)c1ccccc1 (stereo unspecified)	0.7	56
1.5	6.8	0	6.0	i	CCOC(=O)CCc1cnccc1-c1cccc(OC)c1O	0.64	36
-2.1	0.2	-1	-3.9	i	OCCC1CN(Cc2cc3ccccc3o2)CCN1Cc1ccc(F)cc1 (stereo unspecified)	0.65	.
-1.7	.	-14	-0.8	i	Cc1ccccc1OCCOC(=O)c1c(-c2ccccc2)noc1C	.	5
1.1	0.6	0	1.1	.	Cc1nnc(SCc2ccccc2)n(N)c1=O	0.65	3
-3.2	5.1	-3	2.7	i	Cn1c(N)c(C(=O)COC(=O)c2ccc(C(F)(F)F)cc2)c(=O)n(C)c1=O	0.72	0
-1.0	0.2	-6	1.5	i	C=CCNC(=O)Cn1c(=O)c2c(ncn2CCC(C)C)n(Cc2ccccc2)c1=O	0.61	-2
.	1.7	6	-0.1	.	O=C(Cn1cc(SCc2ccc(Cl)cc2)c2ccccc21)N1CCOCC1	0.64	.

# Compound profiles (already shown).
# OCCC1CN(Cc2cc3ccccc3o2)CCN1Cc1ccc(F)cc1 (stereo unspecified) in the list: LANA-H2A inh: -2.1; UCH37 inh: 0.2; Beta2AR agonist: -1; HNF4A DNA FP: -3.9; FGF22 binding: i; E coli growth: 0.65; ALR H2O2 inh: .
# CCOc1ccc2c(c1)c(C(C)=O)c(C)n2-c1ccccc1 in the list: LANA-H2A inh: -2.9; UCH37 inh: 5.0; Beta2AR agonist: -3; HNF4A DNA FP: 6.0; FGF22 binding: .; E coli growth: 0.69; ALR H2O2 inh: -6

# Look-ups from the list:
# `CCOC(=O)CCc1cnccc1-c1cccc(OC)c1O` in Beta2AR agonist reads 0
# `CCOC(=O)[C@@H]1[C@H]2COc3cc(OC)ccc3[C@H]2N2C(=O)N(c3cccc(C)c3)C(=O)[C@]12C` in LANA-H2A inh reads 2.8

# Continued:
LANA-H2A inh	UCH37 inh	Beta2AR agonist	HNF4A DNA FP	FGF22 binding	SMILES	E coli growth	ALR H2O2 inh
-1.8	4.6	4	-3.0	i	O=C(c1ccc2c(c1)C(=O)N(Cc1ccco1)C2=O)N1CCOCC1	0.7	-10
0.9	2.5	3	4.8	.	CC1CCCN(C(c2cccs2)c2nnnn2Cc2ccccc2)C1 (stereo unspecified)	0.68	.
-0.7	1.8	3	0.3	i	Nc1nc(SCC(=O)Nc2ccc(Br)cc2Br)n[nH]1	0.7	1
0.9	0.8	-2	-1.6	.	O=C(CCc1ccccc1)Nc1ncn[nH]1	0.66	.
-3.8	-3.3	3	-2.1	i	O=C(Nc1ccc(Cl)c(S(=O)(=O)N2CCOCC2)c1)c1cn2ccccc2n1	0.67	-5
-1.8	1.9	0	3.8	i	Cc1ccc2nc(NC(=O)CCNS(=O)(=O)c3ccc(Br)s3)sc2c1	0.7	-9
-2.1	3.9	12	3.3	i	CCN(CC)CCn1c2c(c(SCC(=O)Nc3nc4ccccc4s3)nc1=O)CCCC2	0.69	99*
1.4	4.0	1	-5.9	.	CC(N=Cc1cccc(O)c1O)c1ccccc1 (stereo unspecified)	0.65	-19
-2.3	0.5	2	-4.8	.	COc1ccc(OC)c(S(=O)(=O)Nc2ccccc2C(=O)O)c1	0.74	-13
-9.5	3.8	-2	2.4	.	Cc1ccc(Cl)cc1N1CCN(CC(O)COCc2ccco2)CC1 (stereo unspecified)	0.66	33
.	4.1	9	-0.3	i	CCOc1ccc(NC(=O)CN(C)C(=O)C2CCCO2)cc1OCC (stereo unspecified)	0.68	.
.	.	-1	-1.6	i	NCC[C@H](O)C(=O)N[C@@H]1C[C@H](N)[C@@H](O[C@H]2O[C@H](CN)[C@@H](O)[C@H](O)[C@H]2O)[C@H](O)[C@H]1O[C@H]1O[C@H](CO)[C@@H](O)[C@H](N)[C@H]1O	.	.
5.6	1.9	0	-0.3	i	Cc1ccc(NS(=O)(=O)c2ccc3c(c2)NC(=O)CCS3)c(Cl)c1	0.73	-11
0.4	.	11	-1.1	i	O=C(CNc1cccc2ccccc12)N/N=C/c1cccc(Oc2ccccc2)c1	.	-15
-0.6	.	1	-4.4	i	COc1ccc(-c2nn(CCC#N)cc2/C=N/O)cc1OC	.	4
-3.5	-78	-1	3.1	.	COC(=O)c1c(C(=O)OC)c2ccncn2c1Cl	0.74	?
-13	2.8	-8	-0.7	i	Nc1nnc(CSCc2ccccc2Cl)s1	0.67	-16
-4.7	1.1	3	-0.9	i	COc1ccc(NC(=O)COC(=O)CN2C(=O)C3CCCCC3C2=O)cc1OC (stereo unspecified)	0.62	-5
0.2	4.5	1	1.4	i	CC1(C)Cc2cccc(OCC(=O)N3CCN(c4ccc(F)cc4)CC3)c2O1	0.7	.
-7.3	-1.1	3	2.1	i	OC(COC(c1ccccc1)c1ccccc1)CN1CCc2ccccc2C1 (stereo unspecified)	0.62	-9
-2.1	0.2	12	-2.5	.	CC(=O)N1C(C(=O)O)CSC1c1cccc(C)c1 (stereo unspecified)	0.72	.
6.0	2.2	0	-3.2	.	Cc1ccc(NC(=S)NCc2ccc3c(c2)OCO3)cc1	0.62	0
-3.5	0.3	3	2.2	i	Cc1ccc(S(=O)(=O)N2CCOCC2)cc1NC(=O)CN1CCN(C)CC1	0.69	-3
2.1	6.5	5	1.1	i	CCOc1cccc(C2/C(=C(/O)c3ccc4c(c3)CC(C)O4)C(=O)C(=O)N2Cc2cccnc2)c1 (stereo unspecified)	0.69	3
4.5	3.9	15	-1.3	i	CCOc1ccc(CN(C)C(=O)[C@H](Cc2ccccc2)NC(=O)OCc2ccccc2)cc1OC	0.61	.
-6.1	-5.4	1	0.1	i	NS(=O)(=O)c1ccc(CNC(=S)NC2CC2)cc1	0.68	-4
-6.5	4.2	12	3.6	i	OCC1(Cc2cccc(Cl)c2)CCCN(Cc2cn[nH]c2C2CCCCC2)C1 (stereo unspecified)	0.68	.
2.2	1.0	-4	-1.4	i	COc1ccc(S(=O)(=O)N(Cc2ccccc2)c2ccccc2C(=O)N2CCOCC2)cc1	0.69	4
.	0.4	7	0.5	i	CC(OC(=O)c1cccc(S(=O)(=O)N2CCCCC2)c1)C(=O)NCC1CCCCC1 (stereo unspecified)	0.68	.
-0.4	0.7	-1	-0.5	.	COc1ccccc1C(=O)Nc1ccc(Br)cc1C	0.7	-6
0.8	2.3	4	-2.2	i	Nc1cc(N)nc(SCCc2ccccc2)n1	0.56	-5
-2.2	-3.2	17	-1.9	i	Cc1ccc(N/C=C(\[N+](=O)[O-])S(=O)(=O)c2ccccc2)cc1	0.69	-15
-1.6	5.3	13	1.0	.	COc1ccc(NC(=O)CN(c2c(C)cccc2C)S(C)(=O)=O)cc1	0.67	-3
-1.2	1.1	-2	-6.1	i	CC(=O)n1cc([C@H]2C=C(C(=O)N3CCOCC3)O[C@@H](OCc3ccc(CO)cc3)C2)c2ccccc21	.	-1
4.7	4.8	5	1.1	i	COc1cc(C(=O)OC2CSCC2NC(=O)c2ccccc2)cc(OC)c1OC (stereo unspecified)	0.72	52
-8.6	0.0	3	-4.8	.	Cc1nnsc1NC(=O)OCC(C)(C)C	0.69	-8
6.2	2.0	4	2.5	.	CCOc1ccccc1CNC(=O)CCN1C(=O)COc2ccccc21	0.71	1
-1.3	3.9	3	0.8	.	CCOC(=O)/C(N=Nc1c(Br)cc(Br)cc1Br)=C(\C)O	0.69	-3
1.4	2.2	-4	2.8	.	CCn1c(=O)cc(OCC(=O)NCCCN2CCC(C)CC2)c2ccccc21	0.72	-14
-10	9.0	-2	4.0	i	CC(C)Oc1ccc(C2CC(=O)N(Nc3ccc([N+](=O)[O-])cc3[N+](=O)[O-])C2=O)cc1 (stereo unspecified)	0.65	5
-1.7	1.4	15	4.0	i	Cc1ccc(F)cc1CNC(=O)C1CCC(=O)N(CCc2ccccc2)C1 (stereo unspecified)	0.71	-7
-3.9	-30	-46	3.9	i	CCOC(=O)Cn1c(=O)n(Cc2ccccc2)c(=O)c2cccnc21	0.66	2
-4.0	0.3	4	-0.1	i	Cc1cc(C)c(C)c(S(=O)(=O)Nc2ccccc2N2CCOCC2)c1C	0.64	3
-1.1	-2.0	5	-6.4	i	Cc1cc(SCc2ccc([N+](=O)[O-])cc2)nc(=O)[nH]1	0.7	.
2.0	2.9	7	-1.5	.	C=CCN(CC(=O)NCC1CCCO1)C(=O)CCC(=O)Nc1cc(C)on1 (stereo unspecified)	0.68	.
-1.4	1.6	16	0.2	.	CCOC(=O)N1CCN(C(=O)C(c2ccccc2)c2ccccc2)CC1	0.72	-2
-12	-1.8	7	1.4	.	Cc1oc(-c2ccccc2F)nc1CN1CCC(C(=O)NCc2ccco2)CC1	0.66	0
1.7	5.3	-5	-3.8	.	COc1cccc(N2CCN(C3C4CC5CC(C4)CC3C5)CC2)c1 (stereo unspecified)	0.72	8

# From PubChem
